UUG fidelity = modulators of yeast start codon fidelity, primary screen, whole organism, S. cerevisiae, single point, plate reader. S. cerevisiae UUG-firefly luciferase reporter, luminescence/redox ratio. activity score, % at 18.7 µM. 350,000 tested, 0.13% active;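 active = replicate mean at a twofold rise or more, about +100% in these data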;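 also: firefly luciferase made from a UUG start codon reports start codon fidelity; reporter light over untreated wells divided by growth signal over untreated wells; some hits fall short of that in this replicate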
Env fusion inh = inhibitors of HIV-1 Env-driven cell-cell fusion, primary screen, HeLa-JRFL effector, CEM21 target cells, luciferase; inhibition, % at 12.3 µM; 360,000 tested, 1.1% active;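 active = mean replicate inhibition score of at least 50 and every replicate individually at or above 50; inconclusive = only one of the two criteria met; inactive = mean below 50 and not all replicates reaching 50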;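 also: 0% = plate neutral controls and 100% = maraviroc near 300 nM; one replicate is shown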
* hit, by the source's call; i = inactive; ? = inconclusive; [ ] = remark or other dose. Not all compounds are listed. The share of hits here may be higher or lower than overall.

cpd | smiles | Env fusion inh | UUG fidelity
1 | Cc1ccc(S(=O)(=O)N(C)C[C@@H]2Oc3ccc(NS(=O)(=O)c4cccs4)cc3CC(=O)N([C@H](C)CO)C[C@@H]2C)cc1 | ? | 7.5
2 | CN(C)CCCNC(=O)C[C@@H]1C=C[C@H](NS(=O)(=O)c2ccc(F)cc2)[C@@H](CO)O1 | 17.6[16.7 µM] | 10.2
3 | Cc1noc(C)c1S(=O)(=O)N(C)C[C@@H]1OCCCC[C@@H](C)Oc2ccc(NC(=O)Nc3ccc4c(c3)OCO4)cc2C(=O)N([C@H](C)CO)C[C@H]1C | -9.5[16.7 µM] | -8.7
4 | COC(=O)C(CC#Cc1ccc2c(c1)[C@]1(C(=O)N2)[C@H](c2ccc(O)cc2)N2[C@H](c3ccccc3)[C@H](c3ccccc3)OC(=O)[C@H]2[C@@H]1C(=O)N1CCCCCCC1)C(=O)OC | -15.0[16.7 µM] | 24.0
5 | C[C@H](CO)N1C[C@H](C)[C@H](CN(C)S(C)(=O)=O)Oc2ccc(NC(=O)CCCCCC(=O)Nc3ccccc3N)cc2CC1=O | -15.0[16.7 µM] | -2.7
6 | C[C@H]1CN([C@@H](C)CO)C(=O)c2cccc(N(C)C)c2O[C@H]1CN(C)Cc1ccc(C(=O)O)cc1 | 5.2[16.7 µM] | -13.5
7 | C[C@H](CO)N1C[C@H](C)[C@H](CN(C)Cc2ccc(C(=O)Nc3ccccc3N)cc2)Oc2c(NC(=O)Nc3ccc(C(F)(F)F)cc3)cccc2C1=O | -1.3[16.7 µM] | 3.9
8 | COc1ccc(NC(=O)Nc2ccc3c(c2)C(=O)N([C@H](C)CO)C[C@@H](C)[C@@H](CN(C)CC2CCCCC2)OCCCC[C@@H](C)O3)cc1 | -1.7[16.7 µM] | 35.6
9 | C[C@H]1CN([C@@H](C)CO)C(=O)CCCn2nncc2CO[C@@H]1CN(C)CC1CC1 | -2.3 | 16.0
10 | Cc1noc(C)c1S(=O)(=O)Nc1ccc2c(c1)C(=O)N([C@@H](C)CO)C[C@@H](C)[C@H](CN(C)S(=O)(=O)c1ccc(F)cc1)OCCCC[C@@H](C)O2 | 7.6[16.7 µM] | 8.2
11 | COc1ccc(CN(C)C[C@@H]2OCCCC[C@H](C)Oc3ccc(NC(=O)Nc4ccccc4)cc3C(=O)N([C@H](C)CO)C[C@@H]2C)cc1 | -18.9[16.7 µM] | 25.1
12 | C[C@@H]1CN([C@H](C)CO)S(=O)(=O)c2ccc(C#Cc3ccccn3)cc2O[C@H]1CN(C)Cc1ccc(F)cc1 | 21.2[16.7 µM] | 8.4
13 | C/C=C/c1ccc([C@H]2[C@@H](C#N)N(c3ncc(CC)s3)[C@@H]2CO)cc1 | ? | 1.4
14 | C[C@H](CO)N1C[C@H](C)[C@H](CN(C)C(=O)c2ccccc2F)Oc2cc(C#CCN(C)C)ccc2S1(=O)=O | 22.0[16.7 µM] | 5.1
15 | C[C@H]1CN([C@@H](C)CO)C(=O)c2cccc(NC(=O)Nc3ccc(C(F)(F)F)cc3)c2O[C@@H]1CN(C)CC1CC1 | -13.3[16.7 µM] | -9.3
16 | C[C@H](CO)N1C[C@H](C)[C@H](CN(C)S(C)(=O)=O)Oc2ccc(NC(=O)Cn3cnnn3)cc2CC1=O | -1.2[16.7 µM] | -9.2
17 | C[C@@H]1CN([C@H](C)CO)C(=O)c2cc(-c3cccc(C(=O)N(C)C)c3)cnc2O[C@@H]1CN(C)S(=O)(=O)c1ccccc1 | -12.0[16.7 µM] | 5.7
18 | CC(C)NC(=O)N(C)C[C@H]1Oc2c(NS(=O)(=O)c3cn(C)cn3)cccc2C(=O)N([C@@H](C)CO)C[C@@H]1C | 19.5[16.7 µM] | -1.1
19 | CCCNC(=O)N1[C@H](C#N)[C@H](c2ccc(C#Cc3cccc(F)c3)cc2)[C@H]1CO | 47.9[16.7 µM] | -22.0
20 | Cc1noc(C)c1S(=O)(=O)N(C)C[C@H]1OCCCC[C@@H](C)Oc2ccc(NC(=O)Nc3ccc(C(F)(F)F)cc3)cc2C(=O)N([C@@H](C)CO)C[C@@H]1C | 67.2*[16.7 µM] | -14.6
21 | C[C@@H]1CCCCO[C@@H](CN(C)C(=O)Nc2ccc3c(c2)OCO3)[C@H](C)CN([C@@H](C)CO)C(=O)c2cc(NC(=O)c3ccncc3)ccc2O1 | -14.4[16.7 µM] | -0.3
22 | CCC(=O)N[C@H]1CC[C@@H](CCNS(=O)(=O)c2ccc(Cl)cc2)O[C@H]1CO | i | 12.3
23 | O=C(C[C@H]1CC[C@H](NC(=O)c2ccccc2)[C@H](CO)O1)NCc1ccncn1 | -0.1[16.7 µM] | -5.6
24 | CNC[C@@H]1Oc2cc(C#Cc3ccccn3)ccc2S(=O)(=O)N([C@H](C)CO)C[C@H]1C | 3.4[16.7 µM] | 11.0
25 | Cc1noc(C)c1NC(=O)N(C)C[C@H]1Oc2ccc(NS(=O)(=O)c3ccccc3)cc2C(=O)N([C@H](C)CO)C[C@H]1C | 1.5[16.7 µM] | -29.9
26 | CC(=O)N[C@H]1CC[C@H](CC(=O)NCC2CCCCC2)O[C@H]1CO | 16.8[16.7 µM] | -10.3
27 | C[C@H](NC(=O)C[C@H]1CC[C@@H](NC(=O)C2CCC2)[C@@H](CO)O1)c1ccccc1 | 6.5[16.7 µM] | -1.2
28 | C[C@H](CO)N1C[C@H](C)[C@@H](CN(C)CC2CCCCC2)OCCCC[C@H](C)Oc2ccc(NC(=O)Nc3cccc4ccccc34)cc2C1=O | -12.5[16.7 µM] | 11.7
29 | C[C@@H]1CCCCO[C@@H](CN(C)C(=O)Nc2ccc(F)cc2)[C@H](C)CN([C@H](C)CO)C(=O)c2cc(NC(=O)C3CCCCC3)ccc2O1 | -47.5[16.7 µM] | -14.3
30 | C[C@H]1CN([C@@H](C)CO)C(=O)Cc2cc(NS(=O)(=O)c3cccs3)ccc2O[C@@H]1CN(C)Cc1ccc(Oc2ccccc2)cc1 | -36.0[16.7 µM] | 34.8
31 | C[C@H](CO)N1C[C@H](C)[C@@H](CN(C)Cc2ccc(C(=O)Nc3ccccc3N)cc2)Oc2c(NC(=O)c3ccc(-c4nccs4)cc3)cccc2C1=O | -33.5[16.7 µM] | 9.7
32 | CCCC(=O)Nc1ccc2c(c1)OC[C@H](C)N(S(=O)(=O)c1cn(C)cn1)C[C@@H](C)[C@@H](OC)CN(C)C2=O | -6.4[16.7 µM] | 3.1
33 | Cc1ccc(-c2ccc3c(c2)O[C@H](CN(C)Cc2ccccn2)[C@@H](C)CN([C@@H](C)CO)S3(=O)=O)cc1 | 24.1[16.7 µM] | -10.8
34 | CO[C@@H]1CN(C)C(=O)c2cc(NS(=O)(=O)c3cccc(C)c3)ccc2OC[C@H](C)NC[C@@H]1C | 13.3[16.7 µM] | -2.6
35 | Cc1noc(C)c1NC(=O)N(C)C[C@H]1Oc2ccc(NC(=O)C3CCCCC3)cc2CC(=O)N([C@H](C)CO)C[C@H]1C | -14.9[16.7 µM] | -13.4
36 | CC(C)CC#Cc1ccc2c(c1)O[C@@H](CN(C)Cc1ccc3c(c1)OCO3)[C@H](C)CN([C@H](C)CO)S2(=O)=O | 16.8[16.7 µM] | 6.4
37 | CC(=O)N(C)C[C@@H]1Oc2cc(C#Cc3ccccc3)ccc2S(=O)(=O)N([C@H](C)CO)C[C@H]1C | 30.6[16.7 µM] | 26.0
38 | C[C@@H]1CCCCO[C@@H](CN(C)C(=O)c2ccccc2)[C@@H](C)CN([C@@H](C)CO)C(=O)c2cc(NC(=O)NC3CCCCC3)ccc2O1 | 2.6[16.7 µM] | 21.7
39 | C[C@H]1CN([C@@H](C)CO)C(=O)Cc2cc(NC(=O)Nc3ccccc3)ccc2O[C@H]1CN(C)S(=O)(=O)c1cn(C)cn1 | -6.4[16.7 µM] | 2.5
40 | C[C@@H]1CCCCO[C@@H](CN(C)S(=O)(=O)c2ccccc2)[C@@H](C)CN([C@@H](C)CO)C(=O)c2cc(NC(=O)Nc3ccc(F)cc3)ccc2O1 | 16.2[16.7 µM] | -8.1
41 | C[C@@H]1CCCCO[C@@H](CN(C)S(C)(=O)=O)[C@@H](C)CN([C@@H](C)CO)C(=O)c2cc(NS(=O)(=O)c3ccc(Cl)cc3)ccc2O1 | 17.3[16.7 µM] | 58.2
42 | COc1ccc(S(=O)(=O)N(C)C[C@@H]2Oc3ccc(NC(=O)Cn4cnnn4)cc3CC(=O)N([C@H](C)CO)C[C@H]2C)cc1 | -21.9[16.7 µM] | 9.5
43 | C[C@@H]1CN([C@H](C)CO)S(=O)(=O)c2ccc(C#Cc3ccncc3)cc2O[C@@H]1CN(C)S(=O)(=O)c1ccccc1 | 29.2[16.7 µM] | -6.4
44 | C[C@H]1CN([C@@H](C)CO)C(=O)Cc2cc(NC(=O)Nc3ccc4c(c3)OCO4)ccc2O[C@@H]1CN(C)S(=O)(=O)c1cn(C)cn1 | 5.3[16.7 µM] | 37.1
45 | CNC[C@H]1OCCCC[C@@H](C)Oc2ccc(NS(=O)(=O)c3ccc(OC)cc3)cc2C(=O)N([C@H](C)CO)C[C@@H]1C | 0.4[16.7 µM] | 7.2
46 | C[C@@H]1CN([C@@H](C)CO)C(=O)Cc2cc(NC(=O)CCN3CCOCC3)ccc2O[C@@H]1CN(C)Cc1ccc(C(F)(F)F)cc1 | 10.9[16.7 µM] | 7.8
47 | COc1ccc(S(=O)(=O)N[C@@H]2C=C[C@H](CC(=O)N3CCC(Cc4ccccc4)CC3)O[C@H]2CO)cc1 | 11.2[16.7 µM] | -2.1
48 | C[C@@H]1CCCCO[C@@H](CN(C)Cc2ccc(Cl)c(Cl)c2)[C@H](C)CN([C@@H](C)CO)C(=O)c2cc(NC(=O)Nc3cccc4ccccc34)ccc2O1 | 14.7[16.7 µM] | -14.6
49 | C[C@@H]1CN([C@@H](C)CO)C(=O)Cc2cc(NC(=O)Nc3ccc(F)cc3)ccc2O[C@@H]1CN(C)C(=O)NC1CCCCC1 | 13.7[16.7 µM] | 10.7
50 | N#C[C@H]1[C@@H](c2ccc(C#CC3CCCCC3)cc2)[C@@H](CO)N1C(=O)Cc1ccccn1 | 3.2[16.7 µM] | -15.4
51 | Cc1noc(C)c1NC(=O)NCC[C@H]1CC[C@H](NC(=O)Nc2cccc(F)c2)[C@H](CO)O1 | -3.5[16.7 µM] | -4.8
52 | Cc1noc(C)c1NC(=O)Nc1ccc2c(c1)C(=O)N([C@H](C)CO)C[C@@H](C)[C@H](CN(C)S(=O)(=O)c1cn(C)cn1)OCCCC[C@@H](C)O2 | 6.5[16.7 µM] | -0.8
53 | Cc1noc(C)c1S(=O)(=O)Nc1ccc2c(c1)CC(=O)N([C@H](C)CO)C[C@@H](C)[C@@H](CN(C)Cc1ccc(C(F)(F)F)cc1)O2 | 25.6[16.7 µM] | 6.5
54 | C[C@@H]1CCCCO[C@@H](CN(C)C(=O)Nc2ccc3c(c2)OCO3)[C@H](C)CN([C@@H](C)CO)C(=O)c2cc(NC(=O)Nc3ccc4c(c3)OCO4)ccc2O1 | 1.8[16.7 µM] | 6.7
55 | C[C@@H]1CCCCO[C@@H](CN(C)Cc2ccc(Cl)c(Cl)c2)[C@H](C)CN([C@H](C)CO)C(=O)c2cc(NC(=O)Nc3ccc4c(c3)OCO4)ccc2O1 | 29.3[16.7 µM] | 48.6
56 | O=C(N[C@@H]1CC[C@H](CC(=O)N2CCCCC2)O[C@H]1CO)c1cccc(F)c1 | -15.5[16.7 µM] | -4.5
57 | C[C@@H]1CN([C@H](C)CO)C(=O)Cc2cc(NC(=O)c3ccncc3)ccc2O[C@H]1CN(C)C(=O)Nc1ccc(C(F)(F)F)cc1 | -21.5[16.7 µM] | -9.1
58 | O=C(C[C@@H]1CC[C@@H]2NC[C@H](O)COC[C@H]2O1)Nc1nccs1 | 9.6[16.7 µM] | -11.6
59 | COc1ccc(NC(=O)Nc2ccc3c(c2)C(=O)N([C@@H](C)CO)C[C@@H](C)[C@@H](CN(C)C(=O)Cc2ccccc2)OCCCC[C@H](C)O3)cc1 | -8.0[16.7 µM] | 10.4
60 | COc1ccc(NC(=O)N[C@@H]2CC[C@@H](CCNC(=O)c3ccccc3F)O[C@@H]2CO)cc1 | -2.4[16.7 µM] | -5.2

Further records.
cpd | smiles | Env fusion inh | UUG fidelity
61 | COc1ccc(C#Cc2ccc3c(c2)[C@]2(C(=O)N3)[C@H](C(=O)N3CCc4cc(OC)c(OC)cc4C3)[C@H]3C(=O)O[C@H](c4ccccc4)[C@H](c4ccccc4)N3[C@@H]2c2ccc(O)cc2)cc1 | 3.2[16.7 µM] | -19.1
62 | C[C@@H]1CCCCO[C@@H](CN(C)C(=O)Cc2ccccc2)[C@H](C)CN([C@H](C)CO)C(=O)c2cc(NC(=O)c3ccncc3)ccc2O1 | -9.0[16.7 µM] | -9.6
63 | C[C@H](CO)N1C[C@H](C)[C@H](CN(C)C(=O)Nc2ccccc2)Oc2c(NS(=O)(=O)c3ccccc3)cccc2C1=O | -200.8[16.7 µM] | 6.0
64 | O=C(Cc1ccncc1)NCC[C@H]1CC[C@@H](NC(=O)Nc2cccc(F)c2)[C@H](CO)O1 | -10.3[16.7 µM] | 0.2

Part of the list above in another layout:
63. C[C@H](CO)N1C[C@H](C)[C@H](CN(C)C(=O)Nc2ccccc2)Oc2c(NS(=O)(=O)c3ccccc3)cccc2C1=O
  Env fusion inh = -200.8[16.7 µM] | UUG fidelity = 6.0
64. O=C(Cc1ccncc1)NCC[C@H]1CC[C@@H](NC(=O)Nc2cccc(F)c2)[C@H](CO)O1
  Env fusion inh = -10.3[16.7 µM] | UUG fidelity = 0.2
61. COc1ccc(C#Cc2ccc3c(c2)[C@]2(C(=O)N3)[C@H](C(=O)N3CCc4cc(OC)c(OC)cc4C3)[C@H]3C(=O)O[C@H](c4ccccc4)[C@H](c4ccccc4)N3[C@@H]2c2ccc(O)cc2)cc1
  Env fusion inh = 3.2[16.7 µM] | UUG fidelity = -19.1
